# Bead autofluor: flagged as autofluorescent in microsphere protease counterscreen. hit rate 3.1% among 360,000. compound autofluorescence counterscreen, microsphere flow cytometry; stronger effect = higher value. AID 624483. fluorescence intensity (no concentration beside the values);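 active = at least 3 SD above the mean of all compounds, about 16000 in these data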;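 note: 100 nL of 1 mM stock went into each well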
# PrP UTR inh: inhibition of PrP 5' UTR reporter expression; hit rate 0.35% among 340,000; inhibition, % (no concentration beside the values); cell-based PrP 5' UTR mRNA reporter, plate reader; AID 488862;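 active = every replicate at 50% or more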;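 note: 0 = median of the neutral control wells; tested in H4 reporter cells; numbers are from one replicate; inactives centre near -14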
# BJeLR viability: kills HRASV12-expressing BJeLR cells; hit rate 0.17% among 300,000; inhibition, % (concentration not given with the values); BJeLR (HRASV12) viability, CellTiter-Glo ATP luminescence, 48 h; reference of the scale not given here; AID 1554;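 active = replicate mean above 50%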;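 note: 50 nL library stock added to about 25 µL; numbers are from one replicate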
# Mtb hypoxia rep: reduces hypoxia-regulated biosensor signal in M. tuberculosis. M. tuberculosis hypoxia-regulated fluorescent reporter, fluorescence. fluorescence inhibition, % (concentration not given with the values). hit rate 0.1% among 300,000. AID 1159583;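 active = 35 to 45% if threefold the growth effect, above 45% if 1.5-fold the growth effect; inactive = the rest, general growth blockers included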;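 note: wells of about 50 µL received 100 nL stock; 0% = vehicle wells and 100% = reference inhibitor wells; whole bacteria with a GFP reporter of the hypoxia response; strong numbers were not always called active; many hits fall short of the cut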
# ugtP null kill: kills S. aureus RN4220 lacking UgtP. S. aureus RN4220 ugtP deletion, OD600 growth, 16 h; some inactives read as strong as hits. growth inhibition, % (test concentration not listed). hit rate 0.54% among 330,000. AID 1259309;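 active = z-score under -3 and OD600 up to 0.15 on both plates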;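 note: plate controls were untreated wells for no effect and antibiotic for full effect; wells of about 80 µL received 100 nL stock; the first replicate is given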
# Sa RN4220 lethal: kills Staphylococcus aureus RN4220; S. aureus RN4220 growth, OD600, 16 h; inhibition, % (test concentration not listed); hit rate 0.33% among 330,000;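 active = z-score of -3 or lower and OD600 up to 0.18 on both plates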;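 note: plate controls were untreated cells for no effect and reference antibiotic for full effect; stock transfer was 100 nL into about 80 µL; one replicate is shown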
# Mtb hypoxia rep growth: second read-out of Mtb hypoxia rep, no call of its own (marks repeat the call); growth inhibition, %; measured here: M. tuberculosis growth (absorbance);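 0% = vehicle and 100% = reference antibiotic; read after six days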
# * hit, by the source's call; . = no result given.
SMILES,Bead autofluor,PrP UTR inh,BJeLR viability,Mtb hypoxia rep,Mtb hypoxia rep growth,ugtP null kill,Sa RN4220 lethal
O=C(/C=C/c1cccc(Cl)c1)NNC(=O)c1ccncc1,4046,-8,.,17,12,10,5.8
Cc1ccc(S(=O)(=O)/N=C(\N)Nc2nc(C)c3cc(C)ccc3n2)cc1,21184*,-8,-4,.,.,.,.
CCOc1cc(/C=C2/N=C(c3ccc(C(C)(C)C)cc3)OC2=O)cc(Cl)c1OS(C)(=O)=O,10274,-25,-1,8,8,6,-2.2
O=C(Nc1ccc(S(=O)(=O)Nc2ncccn2)cc1)c1cncc(Br)c1,2008,-11,3,16,10,2,6.5
C[C@@H]1O[C@@H](O[C@H]2C[C@@H](O)[C@]3(CO)[C@H]4[C@H](O)C[C@]5(C)[C@@H](C6COC(=O)C6)CC[C@]5(O)[C@@H]4CC[C@]3(O)C2)[C@H](O)[C@H](O)[C@H]1O (stereo partly specified),5533,59*,71*,.,.,.,.
COc1ccc(C(=O)CSc2nc(C)cc(C)n2)cc1[N+](=O)[O-],4215,-60,-2,7,10,-2,3.6
O=C(O)c1ccc2c(c1)C(=O)N(NC(=O)c1ccccc1)C2=O,8111,-10,-3,6,6,-4,3.4
CC1=C(C(=O)Nc2ccccc2C(F)(F)F)C(c2ccc(C)s2)NC(=S)N1 (stereo unspecified),3567,3,5,5,11,-2,2.6
Cc1cc(N2CCCCC2)nc2ccc(NC(=O)CCC(=O)NCCC(C)C)cc12,9561,-33,-11,4,11,0,3.6
COc1ccc2oc(=O)c(-c3cn4ccc(C)cc4n3)cc2c1,3784,-25,10,5,5,3,5.7
C=CCn1c(SC/C=C/c2ccccc2)nnc1-c1sc(N)nc1C,4617,-22,1,.,.,4,0.2
COC(=O)c1c(NC(=O)CC2SC(N)=NC2=O)sc2c1CCC(C(C)(C)C)C2 (stereo unspecified),2004,2,5,-2,3,33,-12
CC1CC(C)CN(C(=O)CN2C(=O)NC3(CCCCCC3)C2=O)C1 (stereo unspecified),3720,-16,.,0,8,3,2.3
CCN(CC)C(=O)c1sc2nc(-c3ccncc3)[nH]c(=O)c2c1C,2885,-11,-7,-5,-8,-2,-4.2
C=CCNC(=S)NN=Cc1ccc(-c2cc(Cl)ccc2Cl)o1,.,.,.,6,7,-20,2.7
CC(=O)Oc1cccc(C(=O)Nc2cccc(C(=O)Nc3ccccc3C(=O)O)c2)c1,4004,-33,-1,15,5,15,5.2
COC(=O)C1=C(c2cccc(C#N)c2)CC2CCC1N2C(=O)NCCNC(C)=O (stereo unspecified),.,.,.,16,16,1,9.0
CSCCC(NS(=O)(=O)c1ccc(C)cc1)C(=O)N1CCN(C(C)=O)CC1 (stereo unspecified),5276,-2,-3,5,12,7,5.9
Cc1ccc(OCc2cc(C(=O)N3CCCCCCC3)no2)cc1C,4794,-39,5,2,10,0,6.8
CCC(C(=O)NCCCc1ccccc1)n1nc(C)c2c(C)n(-c3ccccc3)nc2c1=O (stereo unspecified),6012,-1,0,14,5,5,2.5
CCN(CC(=O)Nc1ccc(OC)cc1)C(=O)CSCc1ccc(C)cc1,2813,-23,.,7,-5,4,1.9
CCOc1ccc(OCC)c(NC(=O)CC2Oc3ccc(C)cc3NC2=O)c1 (stereo unspecified),5412,-19,0,.,.,1,1.7
OC(CNC1CCCC1)COc1c(F)cc(Br)cc1F (stereo unspecified),16538*,7,-3,9,0,3,-0.9
O=C(Cc1c[nH]c2ccccc12)N1CCN(S(=O)(=O)c2cccc(Cl)c2Cl)CC1,3782,-5,.,-1,5,-13,-1.6
O=[N+]([O-])c1cc(S(=O)(=O)c2ccc(N3CCCCC3)c([N+](=O)[O-])c2)ccc1N1CCCCC1,9719,1,8,7,4,-1,4.5
CN(CC(=O)NCCCN1CCOCC1)S(=O)(=O)c1ccc(F)cc1,4174,-8,-7,6,-4,-2,2.9
c1coc(C2Nc3ccccc3-c3nc4ccccc4n32)c1 (stereo unspecified),9394,-14,5,5,12,-11,3.0
CCCC(=O)N1CCN(c2ccc(NC(=O)C(C)(C)C)cc2)CC1,3283,-15,-7,2,7,12,4.3
Cc1cnc(NC(=O)CC2OC(=O)c3ccccc32)s1 (stereo unspecified),5949,4,.,6,-2,0,2.9
COc1ccc(C(=O)NCC(=O)OCC(=O)c2ccc3c(c2)NC(=O)CO3)cc1,4262,-27,9,-3,8,0,2.7
CCCN(CCC)S(=O)(=O)c1ccc(C(=O)N2CCN(C)CC2)cc1,.,-16,-4,5,-3,5,6.4
COC(=O)C1=C(c2ccc(S(C)(=O)=O)cc2)CC2CCC1N2C(=O)NCC1CC1 (stereo unspecified),.,.,.,2,1,1,6.5
CCOC(=O)c1[nH]cnc1C(=O)Nc1cccc(Cl)c1,4280,-39,0,5,8,-4,3.4
C/C(=N\OCC(=O)N/N=C/c1ccccc1)c1cccs1,6987,-7,2,.,.,.,.
COC(=O)Cc1cc(=O)n(-c2ccccc2)[nH]1,7456,-11,-2,13,11,2,1.7
CCOc1ccc(C(=O)n2cc(C(=O)OC)c3ccccc32)cc1,3712,-25,6,-2,16,3,-0.6
COc1ccc(CCC(=O)NNC(=S)Nc2cccc(C(C)=O)c2)cc1,2080,-8,4,-8,-1,-1,-0.5
Cc1cc(C)cc(OCC(=O)OCCN2C(=O)c3ccccc3C2=O)c1,2103,-14,-2,.,.,5,5.1
CSCC[C@H](NC(=O)OC(C)(C)C)C(=O)NCC1CCC(C(=O)O)CC1 (stereo partly specified),3212,-17,-3,-8,-3,-10,-3.8
COc1ccc(C(=O)Nc2ccnc(-c3cccnc3)n2)cc1,3354,-31,7,11,4,8,0.0
CCN(CC)CCn1c2ccccc2c2cnc(N)c(C#N)c21,2428,-23,-14,.,.,10,8.2
Cc1c(C(=O)NCc2ccccc2CN2CCCC2)oc2c(F)cccc12,3731,-6,.,3,3,8,3.5
COC(=O)CSc1nc(N)c(C#N)c(-c2ccc(O)cc2)c1C#N,4552,.,4,13,7,2,3.1
Cc1ccc(S(=O)(=O)N(C)CC(=O)NN=Cc2ccc(C)o2)cc1,.,.,.,-4,1,-5,1.9
COc1ccc(N2CCN(S(=O)(=O)CCNC(=O)C3CC3)CC2)cc1,6322,-2,7,-5,11,-1,0.5
Cc1cccc(C)c1NC1=NC2(CCCCC2)N=C(N)N1,14352,-11,14,0,-3,13,7.0
Cc1ccc(S(=O)(=O)N2CCOCC2)cc1NC(=O)COC(=O)c1cccnc1Cl,4448,-8,-31,8,5,6,15
CCOC(=O)C1CCN(C(=O)CCc2ccc(S(=O)(=O)NC(C)C)cc2)CC1,4044,4,-3,13,7,4,1.7

# Rewritten with values under each structure: entries from further up
# Screens in order – Bead autofluor	PrP UTR inh	BJeLR viability	Mtb hypoxia rep	Mtb hypoxia rep growth	ugtP null kill	Sa RN4220 lethal
CN(CC(=O)NCCCN1CCOCC1)S(=O)(=O)c1ccc(F)cc1
    4174	-8	-7	6	-4	-2	2.9
CCCN(CCC)S(=O)(=O)c1ccc(C(=O)N2CCN(C)CC2)cc1
    .	-16	-4	5	-3	5	6.4
COc1ccc(N2CCN(S(=O)(=O)CCNC(=O)C3CC3)CC2)cc1
    6322	-2	7	-5	11	-1	0.5
CC1=C(C(=O)Nc2ccccc2C(F)(F)F)C(c2ccc(C)s2)NC(=S)N1 (stereo unspecified)
    3567	3	5	5	11	-2	2.6

# Following part:
SMILES,Bead autofluor,PrP UTR inh,BJeLR viability,Mtb hypoxia rep,Mtb hypoxia rep growth,ugtP null kill,Sa RN4220 lethal
COc1cc2c(cc1OC)C(COc1ccccc1OC)N(C(=O)c1ccco1)CC2 (stereo unspecified),4234,-9,-24,-4,15,-2,-4.0
COCCCn1cnc2c(c1=O)c1nc3ccccc3nc1n2-c1ccc(C)cc1,3624,0,-1,.,.,-3,4.9
O=C(CCCn1c(=O)oc2ccccc21)NNC(=O)COc1ccc(F)cc1,5070,-13,.,8,9,6,3.4
Oc1cccc(C=NNc2nncc(-c3ccccc3)n2)c1,.,.,.,-12,-4,-14,6.8
COc1ccccc1C(CC(=O)O)c1ccc2c(c1)OCO2 (stereo unspecified),3197,-23,-17,1,-2,1,2.4
O=C(/C=C/Nc1ccccc1Oc1ccccc1)c1ccco1,4823,-20,7,-2,-8,14,-2.2
Cc1ccc2nc(SCC(=O)Nc3c(C)n(C)n(-c4ccccc4)c3=O)[nH]c2c1,3216,-10,8,-2,-4,4,-1.7
Cc1ccc(NC(=O)CSc2nc3sc(C)cc3c(=O)n2C)cc1,3115,-29,1,-5,-9,6,3.5
CCN(CC)CCSc1nc(O)c(-c2ccccc2)c(=O)[nH]1,17285*,-19,4,2,4,12,6.7
Cc1cc(C(=O)NCc2ccco2)cs1,9797,-17,2,.,.,3,5.9
O=C(O)CCC(=NNC(=O)c1ccc(F)cc1)c1ccc(Br)cc1,.,.,.,-5,6,1,-0.2
Cc1ccc(S(=O)(=O)NCc2ccccc2)cc1C(=O)NCC1CCCO1 (stereo unspecified),.,-13,12,11,0,5,4.4
CC1=NN(c2cccc(F)c2)C(=O)/C1=C/c1ccc(N(C)C)cc1,.,-27,3,8,-1,-2,0.7
Cc1ccc(Nc2nnc(SC(C)C(=O)NCC3CCCO3)s2)cc1 (stereo unspecified),3849,-18,.,7,5,1,1.5
Cc1[nH]c(=O)[nH]c(=O)c1S(=O)(=O)N1CCCC(C(=O)NCc2ccc3c(c2)OCO3)C1 (stereo unspecified),4442,-33,-3,.,.,.,.
Cn1c(=O)[nH]c(=O)c2c1nc(Br)n2Cc1ccccc1Cl,5877,-4,-5,.,.,5,-3.2
Cc1c(O)ccc2c3c(c(=O)oc12)CCC(C)C3 (stereo unspecified),2842,-18,7,.,.,-15,2.9
CCN(Cc1ccncc1)C(=O)C1CCC(=O)N(Cc2ccc(Cl)cc2)C1 (stereo unspecified),5245,3,-13,6,11,5,2.1
C=CCN(C(=O)CCC(=O)O)C1CC(=O)N(c2ccc(OCCC)cc2)C1=O (stereo unspecified),2344,-29,4,.,.,-2,2.0
Cc1ccc(CNS(=O)(=O)c2ccc(C(C)(C)C)cc2)n1C,10457,-10,4,17,6,-4,14
CS(=O)(=O)c1ccc(Cl)c(NC(=O)COC(=O)c2ncc(Cl)c(Cl)c2Cl)c1,4741,-30,-5,1,-7,9,2.5
C=CCn1c(SCc2nc3ccccc3[nH]2)nnc1-c1cccc(OC)c1,22532*,-14,-5,0,5,-3,-0.2
CC1(C)CCC(=O)c2ccccc21,2980,-6,.,4,-1,10,6.1
CC(C)(C)OC(=O)NNC(=S)NCc1ccc(Cl)cc1,2486,-3,1,8,12,0,6.6
CC(=O)OC(C)(C)C1Cc2cc3ccc(=O)oc3cc2O1 (stereo unspecified),3939,-6,-5,-2,3,4,1.5
COc1ccc(-c2cc(-c3ccc(OC)c(OC)c3)n[nH]2)c(O)c1,9777,-62,6,5,5,-16,-2.4
CC1CCC(NC(=O)N(CCCl)N=O)CC1 (stereo unspecified),4764,-29,5,.,.,.,.
O=C(NCCC1=CCCCC1)C1CCN(S(=O)(=O)N2CCOCC2)CC1,20881*,-31,-2,-4,6,-2,-0.5
Cc1cn([C@H]2C[C@H](O)[C@@H](CCC(=O)NCCCn3ccnc3)O2)c(=O)[nH]c1=O,3893,-22,.,-6,8,1,4.9
Cc1ccc(N2CCN(C(=O)c3ccccc3NC(=O)C3CC=CCC3C(=O)O)CC2)cc1 (stereo unspecified),3619,-63,-3,.,.,9,-3.4
COc1cccc(C2SCC(=O)N2c2ccc(C)cc2)c1OC (stereo unspecified),2109,-26,0,9,-3,3,5.4
Cc1cccc2sc(NC(=O)c3cccc(S(=O)(=O)N4CCc5ccccc54)c3)nc12,2381,-24,9,16,7,-8,-2.2
C/C(CC(=O)Nc1ccc2c(c1)OCO2)=N\NC(=O)OC(C)(C)C,4752,-15,-7,.,.,.,.
CN1C(=O)/C(=C2\SC(=S)N(NC(=O)c3cccnc3)C2=O)c2ccccc21,2960,-8,-8,10,0,9,6.7
COc1ccc(C(=O)N/N=C/c2ccc(OC(=O)c3ccccc3)cc2)cc1,2485,-24,11,.,.,.,.
COc1ccc(/C=C2\CCCC3C2=NC(=S)NC3c2ccc(OC)cc2)cc1 (stereo unspecified),2633,-11,-5,6,4,35,-2.2
CCOC(=O)Cc1csc(NC(=O)c2cc(=O)c3ccccc3o2)n1,3504,-4,6,1,0,3,5.4
Cc1c(C=O)c2ccccc2n1CC(=O)NCc1ccccc1,4096,-25,5,-2,-2,6,4.7

# High-throughput results from PubChem BioAssay.
